NPYLR7 ag – mosquito NPYLR7 agonism; AID 1259423; hit rate 0.15% among 270,000; HEK293T NPYLR7/Galpha15, GCaMP6s calcium fluorescence; activation, % at 10 µM; in the data active = activation above about 40%;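 also: 0% = vehicle and 100% = reference agonist at the receptor; some compounds past the cut are filed as inactive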
NPYLR7 ag max-min – second read-out of NPYLR7 ag, no call of its own (marks repeat the call); activation, %; measured here: Max-Min RFU normalised activation; some inactives read as strong as hits;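 span of the calcium signal over five minutes; 0% = vehicle and 100% = native peptide agonist; compound fluorescence can raise it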
* marks the source's active call; other numbers are inactive results.

SMILES | NPYLR7 ag | NPYLR7 ag max-min
CN(Cc1csc(-c2ccccc2)n1)Cc1nc(-c2cccc(Cl)c2)no1 | 20.9 | 12.9
Cc1ccccc1-n1nc(C)c(CNC(=O)c2csc(-c3cccs3)n2)c1C | 3.3 | -0.6
O=C(c1ccc(Cl)s1)N1CCC2(CCCN(CC3CC3)C2)C1 (stereo not given) | 1.6 | -5.1
CCN(CC)C(=O)c1cccc(NC(=O)CCOc2ccccc2C)c1 | 16.3 | 8.4
COc1cccc(C(=O)Nc2cc(=O)n(C)c(=O)n2C)c1 | 11.3 | 13.8
Cc1cc(CNC(=O)COc2ccccc2C2SCCS2)ccc1F | 0.4 | -0.6
Cc1c(C)n2c3c(=O)[nH]c(=O)n(C)c3nc2n1CCN(C)Cc1ccccc1 | 0.9 | 6.6
COc1cc(-c2cnc3ccc(NCc4ccc(C)cc4C)nn23)ccc1O | -9.4 | -12.6
CCOc1cccc(-c2ccc(Nc3ccc(OC)cc3C)nc2)c1 | -8.8 | -11.8
CCOCCCNC(=O)C1CCC(=O)N(CCc2ccc(Cl)cc2)C1 (stereo not given) | 12.9 | 6.7
CCC(=O)NCCc1cc2c(OC)ccc(OC)c2[nH]c1=O | 1.0 | 31.3
CC(C)(C)c1cc(N2CCCC2)n2ncc(-c3ccccc3)c2n1 | 2.0 | 5.4
Cc1cccc(COCC2CN(C(=O)Cc3ccc4c(c3)OCO4)CCO2)c1 (stereo not given) | 23.6 | 27.4
CCCCOc1ccc(-c2nc(C=Nc3cc(Cl)ccc3C)c(O)o2)cc1 | 11.6 | 14.5
CCCCNC(=S)N(C)N=Cc1ccc(C)s1 | 2.7 | 0.0
C#CC1(OCC(O)CN2C(C)(C)CCCC2(C)C)CCCCC1 (stereo not given) | -3.9 | 6.9
C=CCN1C(=O)NC(c2cccc(Cl)c2)C2=C1CN(CCCN1CCCCC1C)C2=O (stereo not given) | 2.2 | 18.2
Cc1nc(C)c(Cc2ccccc2C)c(N2CCN(C(=O)c3ccc(F)cc3)CC2)n1 | 4.5 | 8.6
NC(=O)CSc1nccc2c(OCc3ccc(F)cc3)cccc12 | 1.0 | -0.1
Cc1ccc(-n2nc(C(=O)NC(C)c3ccccc3)c(=O)n(Cc3ccc(C(F)(F)F)cc3)c2=O)cc1 (stereo not given) | 8.5 | 5.8
C=CCn1c(SCCN2CCOCC2)nc2c1c(=O)[nH]c(=O)n2C | 14.4 | 7.9
O=S(=O)(c1ccc(F)c(Cl)c1)N1CCC(Cc2ccc(-n3cccc3)cc2)CC1 | 3.5 | 1.9
CCS(=O)(=O)Oc1cccc(CN(CCOC)C(=O)c2ccc(OC)cc2)c1 | -1.2 | 0.2
CCOC(=O)c1cc(CCC(C)C)n(-c2ccc(C(=O)NCc3ccc(C(F)(F)F)cc3)cc2)n1 | 7.1 | 4.7
N#CC(=NNc1cccc2ccccc12)c1nnc2n1CCCCC2 | 0.8 | -3.0
(continued)
SMILES | NPYLR7 ag | NPYLR7 ag max-min
Cc1noc(C)c1C(=O)N1CCN(c2ncccc2C(=O)NCc2cccs2)CC1 | -4.7 | -12.1
COc1ccc(-n2c(SCC(=O)N3CCN(C(=O)c4ccc(Cl)c(Cl)c4)C(C)C3)nnc2-c2ccc(C)cc2)cc1 (stereo not given) | 20.4 | 19.3
CCOC(=O)c1ccc(NC(=O)Cn2cc(OC)c(=O)cc2CSc2nc(C)cs2)cc1 | -0.7 | -5.7
COC(=O)c1ccc(-c2ccco2)n1CC(=O)O | 5.2 | 0.6
O=C(NCCn1nc(-c2ccc(F)cc2)ccc1=O)c1ccc(Br)cc1 | -6.5 | -7.1
CCN(CC)C(=O)Oc1ccc2c(ccn2Cc2ccccc2F)c1NC(=O)c1cc(OC)c(OC)c(OC)c1 | 3.1 | -0.5
CNc1ncccc1C(=O)N1CCOC(C(F)(F)F)C1 (stereo not given) | -2.6 | 0.1
CC(=O)Oc1c(-c2ccc(NC(=O)c3cccs3)cc2)c(-c2cccc(F)c2)nn1-c1ccccc1 | -0.6 | -0.1
Cn1cncc1CS(=O)(=O)c1ccccc1F | -0.2 | 30.5
COc1cccc(F)c1-c1cccc(N2CCNCC2)n1 | 0.3 | -2.9
Cc1cc(C(=O)NC(CC(C)(C)C)c2cccnc2)n[nH]1 (stereo not given) | 8.0 | 6.2
COC(=O)c1cc(C#N)c(=O)n(Cc2coc(-c3ccc(C)cc3C)n2)c1 | 10.8 | 3.6
COc1ccc(CCNC(=O)N2CCCCC2CCN2CCCC2=O)cc1 (stereo not given) | 9.4 | 5.0
CCOC(=O)N1CCN(C(=O)CC(c2ccccc2C(F)(F)F)c2c[nH]c3ccccc23)CC1 (stereo not given) | -2.9 | 3.1
CCCn1c(C2CC(=O)N(c3ccc(C)cc3)C2)nc2ccccc21 (stereo not given) | -2.3 | -6.2
CCCCC(CC)CNC(=O)CNC(=O)c1ccc(SC)cc1 (stereo not given) | -7.2 | -11.6
COc1cc(OC)cc(C(=O)NCc2cccc(-c3ncc(-c4cc(OC)ccc4OC)[nH]3)c2)c1 | 24.3 | 7.3
CC(Sc1nc2ccccc2s1)C(=O)N/N=C\c1cccc(Cl)c1 (stereo not given) | 2.2 | 10.4
O=C(CN(Cc1ccccc1)S(=O)(=O)c1ccccc1)NC(Cc1ncc[nH]1)c1ccccc1 (stereo not given) | 3.8 | 10.2
c1nc(NC2CC3CC2C2CCCC32)c2sccc2n1 (stereo not given) | 0.0 | -0.9
C=C(C)COc1cccc(C(=O)N2CC[C@H](NC(C)=O)C2)c1 | -2.3 | -5.8
CN1CCC(=NNC(=O)c2ccc(N(Cc3ccccc3)S(C)(=O)=O)cc2)CC1 | -6.1 | -12.5
O=C(NCc1ccco1)c1cn(Cc2ccccc2F)c(=O)s1 | 8.4 | 0.5
Cc1noc(C)c1CC(=O)NCc1ccnc(OCc2ccccc2)c1 | -3.7 | -3.6
O=c1c(C2=NCCCC2)c(NC2=NCCCCC2)[nH]n1-c1ccccc1 | 8.1 | 5.0

An excerpt of these results, with tabs.
SMILES	NPYLR7 ag	NPYLR7 ag max-min
COc1cccc(F)c1-c1cccc(N2CCNCC2)n1	0.3	-2.9
CCCCC(CC)CNC(=O)CNC(=O)c1ccc(SC)cc1 (stereo not given)	-7.2	-11.6
CCCn1c(C2CC(=O)N(c3ccc(C)cc3)C2)nc2ccccc21 (stereo not given)	-2.3	-6.2

New compounds follow
SMILES | NPYLR7 ag | NPYLR7 ag max-min
N#CC(c1ccc(Cl)cc1)c1c(Cl)cc(-n2ncc(=O)[nH]c2=O)cc1Cl (stereo not given) | -1.0 | -0.5
CN(C)c1nc2c(c(=O)[nH]1)CCN(C(=O)c1cccc3c1NCCC3)C2 | 23.8 | 7.8
COC(=O)c1oc(CN2CCCc3cccc(NC(C)=O)c32)cc1C | 0.7 | 2.6
O=C(NCCc1nccc(-c2ccccc2)n1)c1cn(-c2ccccc2)nn1 | 4.1 | -8.0
CC(NC(=O)c1cc2n(n1)CCN(Cc1c(Cl)cccc1Cl)C2=O)c1ccccc1 (stereo not given) | -9.9 | -3.0
CC(=O)c1ccc(S(=O)(=O)N2CCN(C(=O)CN3CCC(C)CC3)CC2)cc1 | 2.3 | 2.0
O=C(Nc1ccc(Cl)cc1)N1CCCN(Cc2ccc(F)cc2)CC1 | 14.3 | 5.5
Cc1c(NC(=O)Cc2csc(NC(=O)Nc3ccccc3)n2)c(=O)n(-c2ccccc2)n1C | -3.1 | -1.2
CC(CC12CC3CC(CC(C3)C1)C2)n1cnc2nccnc2c1=O (stereo not given) | -1.0 | -0.2
COC(=O)[C@@H](NC(=O)CCC1(Cc2ccc(OC)cc2F)CCC(=O)N1)C(C)C (stereo not given in full) | 12.4 | -0.2
Cc1nc(-n2nc(C3CC3)cc2NC(=O)c2ccccc2Cl)[nH]c(=O)c1C | 8.6 | 7.5
O=C(C1CCCC1)N1CCN(S(=O)(=O)c2ccc(F)c(Cl)c2)CC1 | 17.0 | 9.6
Nc1nc(NCc2ccco2)nc(N2CCCCC2)c1[N+](=O)[O-] | -2.3 | -3.7
COc1ccc(C2CC(=O)C3C(=Nc4ccccc4NC3c3ccccc3[N+](=O)[O-])C2)cc1 (stereo not given) | -1.1 | -2.7
O=C1C[C@H]2CC[C@@H](CN1)N2c1nccc(CCC(F)(F)F)n1 | -6.7 | -11.0
O=c1ccnc2sc(NCCc3ccc4c(c3)OCO4)nn12 | 0.6 | 1.1
COc1ccccc1CN(C(=O)CSc1nnc(C)s1)C1CCCC1 | -0.4 | -4.1
c1cncc(CN2CCN(Cc3nc(-c4ccc5c(c4)OCO5)no3)CC2)c1 | 10.9 | -3.8
C=CCOc1ccc(/C=C2\NC(=S)NC2=O)cc1OC | -1.0 | 8.6
CCCC(=O)N(c1ccc2oc(C)c(C(C)=O)c2c1)S(=O)(=O)c1ccccc1 | 3.8 | 2.5
O=c1c(-c2ccc(Cl)cc2)[n+]([O-])c2ccccc2n1OCc1ccccn1 | 1.7 | -1.1
O=C1N(CCc2ccccc2)C(c2ccccc2)=NC1(Nc1ncccn1)C(F)(F)F (stereo not given) | -6.6 | -10.9
CC1CN(c2nc(-c3ccccc3)nc3c2CN(C(=O)Nc2ccc(Cl)cc2Cl)CC3)CC(C)O1 (stereo not given) | -9.4 | -10.5
Cc1cc(-n2[nH]c(C)cc2=O)nc(-c2ccccc2O)n1 | -18.8 | -22.7
COC(=O)CCc1c(C)nn(-c2ccc(C(=O)NCCc3ccccc3)cc2)c1C | -3.1 | -5.5
Remaining list, next part.
SMILES | NPYLR7 ag | NPYLR7 ag max-min
COCCCNc1nc2nonc2nc1N1CCCC(CN2CCOCC2)C1 (stereo not given) | 11.2 | 4.5
O=c1cc(C(F)(F)C(F)(F)F)oc2ccccc12 | -0.7 | -2.0
CC(C)c1cc(N2CCOC(C(F)(F)F)C2)nc(C(F)(F)F)n1 (stereo not given) | 0.2 | -1.6
Cc1nn(-c2cccc(Cl)c2Cl)c(C)c1CCC(=O)N[C@@H]1CCCC[C@H]1N1CCOCC1 | 3.2 | 4.9
CCC(C)NC(=O)c1ccc(-c2cccnc2OC)o1 (stereo not given) | -3.0 | -5.9
CC(NS(=O)(=O)C1CS(=O)(=O)c2ccccc21)c1cccc(F)c1 (stereo not given) | 15.6 | 12.9
O=S(=O)(NC1CCCCCC1)c1ccc(F)cc1F | 2.2 | 0.4
Cc1nc(C(=O)NC(C)c2nc3c(s2)CCCC3)cs1 (stereo not given) | 6.7 | 4.6
COc1ccc(C(=O)NC(C)c2cccs2)cn1 (stereo not given) | -4.9 | -9.1
CCCn1c(SCc2cccc3ccccc23)n[nH]c1=O | 1.0 | 0.4
CCc1nsc(NCC(C)(C)N2CCOCC2)n1 | -1.6 | -3.6
CC(C)(C)c1csc(NC(=O)Cc2ccsc2)n1 | 11.5 | 6.7
CCn1c(SCC(=O)OC)nnc1-c1cc(-c2ccccc2)nc2ccccc12 | -9.0 | -12.6
CC(Sc1ccc(S(C)(=O)=O)cc1)C(N)=O (stereo not given) | 3.2 | 1.1
Cc1cc(C(=O)N2CCCC(N3CCNC3=O)C2)c(C)n1C(C)C (stereo not given) | -22.7 | -24.4
COC(C)c1noc(C2COc3ccccc32)n1 (stereo not given) | -0.4 | -5.2
O=C(NCCc1ccccc1)c1ccc(Oc2nc(Cc3ccccc3)ns2)c(CN2CCOCC2)c1 | -9.2 | -3.5
COc1cccc(CN2CCN(c3ccc(-c4ccccc4)cc3)C(=O)C2C)c1 (stereo not given) | 1.6 | 6.0
Cc1cccc2sc(N(CCCn3ccnc3)C(=O)c3cccc(F)c3)nc12 | -14.9 | -20.1
S=c1n(CN(Cc2cccnc2)C2CC2)nc(-c2ccco2)n1Cc1ccccc1 | 0.9 | -0.8
c1ccc(CCCC2CN(C3CCSCC3)CCO2)cc1 (stereo not given) | 6.2 | 2.7
CN1CCC(C)(CNC(=O)c2cc(COc3ccc4c(c3)OCO4)[nH]n2)C1 (stereo not given) | 4.4 | 2.5
Cc1ccc(S(=O)(=O)N2CCN(CCn3nc(-c4ccccc4)ccc3=O)CC2)s1 | -5.0 | 1.2
Cc1ccc(CN2C(=O)COCc3cc(-c4ccoc4)ccc32)cc1 | 1.0 | 0.0
CCOc1ccc(-c2ccc(=O)n(CCNS(=O)(=O)CCc3ccccc3)n2)cc1 | 0.3 | -1.2
CCC(NC(=O)C1CC(=O)N(C)C1)c1cccc(Cl)c1 (stereo not given) | 0.1 | 0.3
Oc1[nH]c2ccc(Br)cc2c1N=Nc1c(Cl)cc(Cl)cc1Cl | 22.0 | 7.8
CCCS(=O)(=O)CCN1CCN(c2cc(F)ccc2F)CC1 | 5.8 | 3.3
COc1ccc(C(=O)CCC(=O)Nc2ncccc2C)cc1OC | -0.5 | -0.1

In the list so far, eleven contain two or more sulfur atoms:
SMILES | NPYLR7 ag | NPYLR7 ag max-min
Cc1ccccc1-n1nc(C)c(CNC(=O)c2csc(-c3cccs3)n2)c1C | 3.3 | -0.6
Cc1cc(CNC(=O)COc2ccccc2C2SCCS2)ccc1F | 0.4 | -0.6
CCCCNC(=S)N(C)N=Cc1ccc(C)s1 | 2.7 | 0.0
CCOC(=O)c1ccc(NC(=O)Cn2cc(OC)c(=O)cc2CSc2nc(C)cs2)cc1 | -0.7 | -5.7
CC(Sc1nc2ccccc2s1)C(=O)N/N=C\c1cccc(Cl)c1 (stereo not given) | 2.2 | 10.4
COc1ccccc1CN(C(=O)CSc1nnc(C)s1)C1CCCC1 | -0.4 | -4.1
CC(NS(=O)(=O)C1CS(=O)(=O)c2ccccc21)c1cccc(F)c1 (stereo not given) | 15.6 | 12.9
Cc1nc(C(=O)NC(C)c2nc3c(s2)CCCC3)cs1 (stereo not given) | 6.7 | 4.6
CC(C)(C)c1csc(NC(=O)Cc2ccsc2)n1 | 11.5 | 6.7
CC(Sc1ccc(S(C)(=O)=O)cc1)C(N)=O (stereo not given) | 3.2 | 1.1
Cc1ccc(S(=O)(=O)N2CCN(CCn3nc(-c4ccccc4)ccc3=O)CC2)s1 | -5.0 | 1.2

Compound activity deposited in PubChem BioAssay by Fisher Drug Discovery Resource Center.

The list is partial, so the mix of outcomes need not match the whole.
